Source: PubChem BioAssay
RN4220 kill – S. aureus RN4220 growth inhibition; AID 1259311; 330,000 tested, 0.33% active; OD600, 16 h; inhibition, % (test concentration not listed);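 active = z-score of -3 or lower and OD600 up to 0.18 on both plates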;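 note: plate controls were untreated cells for no effect and reference antibiotic for full effect; stock transfer was 100 nL into about 80 µL; one replicate is shown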
BJeLR lethal – kills HRASV12-expressing BJeLR cells; inhibition, % (test concentration not listed); BJeLR (HRASV12) viability, CellTiter-Glo ATP luminescence, 48 h; reference of the scale not given here; 300,000 tested, 0.17% active;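 active = replicate mean above 50%; inconclusive = above 50% but judged a plate artefact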;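 note: 50 nL library stock added to about 25 µL; numbers are from one replicate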
Bead autofluor – flagged as autofluorescent in microsphere protease counterscreen | fluorescence intensity (concentration not given with the values) | 360,000 tested, 3.1% active | compound autofluorescence counterscreen, microsphere flow cytometry; stronger effect = higher value;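 active = at least 3 SD above the mean of all compounds, about 16000 in these data; inconclusive = too few beads counted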;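 note: 100 nL of 1 mM stock went into each well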
PrP 5UTR inh – suppresses PrP 5' UTR mRNA reporter expression. inhibition, % (concentration not given with the values). cell-based PrP 5' UTR mRNA reporter, plate reader. 340,000 tested, 0.35% active;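 active = every replicate at 50% or more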;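 note: 0 = median of the neutral control wells; tested in H4 reporter cells; numbers are from one replicate; inactives centre near -14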
ugtP null kill – kills S. aureus RN4220 lacking UgtP. 330,000 tested, 0.54% active. S. aureus RN4220 ugtP deletion, OD600 growth, 16 h; some inactives read as strong as hits. growth inhibition, % (test concentration not listed);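 active = z-score under -3 and OD600 up to 0.15 on both plates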;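 note: plate controls were untreated wells for no effect and antibiotic for full effect; wells of about 80 µL received 100 nL stock; the first replicate is given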
Mtb hypoxia inh – inhibitors of hypoxia-regulated fluorescent reporter in Mycobacterium tuberculosis | fluorescence inhibition, % (test concentration not listed) | M. tuberculosis hypoxia-regulated fluorescent reporter, fluorescence | AID 1159583 | 300,000 tested, 0.1% active;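 active = 35 to 45% if threefold the growth effect, above 45% if 1.5-fold the growth effect; inactive = the rest, general growth blockers included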;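 note: wells of about 50 µL received 100 nL stock; 0% = vehicle wells and 100% = reference inhibitor wells; whole bacteria with a GFP reporter of the hypoxia response; strong numbers were not always called active; many hits fall short of the cut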
Mtb hypoxia inh growth – second read-out of Mtb hypoxia inh, no call of its own (marks repeat the call); growth inhibition, %; measured here: M. tuberculosis growth (absorbance);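 0% = vehicle and 100% = reference antibiotic; read after six days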
* marks the source's active call; other numbers are inactive results; ? = inconclusive; . = no result given.

SMILES	RN4220 kill	BJeLR lethal	Bead autofluor	PrP 5UTR inh	ugtP null kill	Mtb hypoxia inh	Mtb hypoxia inh growth
O=C(N[C@@H]1CCC(=O)N(CC[C@H](Oc2ccccc2)c2ccccc2)CC1)OCc1ccccc1	.	3.5	4470	-3.4	.	.	.
CCN(CC(=O)Nc1ccc(NC(C)=O)cc1)C(=O)/C=C/c1ccco1	1.3	0.4	6250	-65.3	1.5	4.2	7.4
CCCn1c(SCC(=O)NCCc2ccc(OC)c(OC)c2)nc2c1c(=O)n(C)c(=O)n2C	-0.1	-9.6	18189*	0.1	-2.1	6.6	7.9
Cn1cc(SCC(N)=O)c2ccccc21	7.3	-5.5	5314	-33.9	4.5	3.1	4.5
O=C(c1nn2cccnc2c1Cl)N1CCN(c2ccccc2)CC1	3.5	.	4170	-33.6	3.6	.	.
O=C(CSc1ccccc1)Nc1ccc(N2CCOCC2)c(F)c1	-4.7	1.7	6070	-63.8	-0.3	-7.1	4.9
O=C(Cc1cccs1)Nc1nncs1	3.7	1.1	3632	-0.2	5.5	2.5	1.9
CN(CCC1CCCCO1)C(=O)CCc1nnc(Cc2c[nH]c3ccccc23)o1 (centres undefined)	1.9	-12.3	6127	-18.7	14.8	4.9	-2.9
Cc1ccnc(SCC(=O)c2ccc(Br)cc2)c1C#N	3.0	11.7	2042	-74.9	-12.2	13.9	6.7
CCOC(=O)c1ccc(NCc2nc3ccccc3n2C)cc1	-7.6	1.9	3336	-66.0	2.2	-3.6	-3.7
COc1ccc(F)cc1S(=O)(=O)NCCCn1ccnc1	1.0	-21.8	3757	-31.7	6.8	-1.2	-5.5
CCN1C(c2ccc(F)cc2)=CS/C1=C(\C#N)c1nnc2n1-c1ccccc1SC2	3.9	-15.4	6424	2.4	2.8	1.9	0.3
CC1CCCCN1C(=O)Cn1c(=O)n(-c2ccc(F)cc2)c(=O)c2sccc21 (centres undefined)	1.9	-0.1	3383	-18.5	0.8	7.1	1.1
Cc1cccc(-n2c(O)c(/C=N/NC(=O)c3ccccc3Cl)c3ccccc3c2=O)n1	1.9	-7.2	7169	-8.2	-5.0	-3.6	-3.1
CCCC(=O)NC(NC(=S)Nc1c(C)n(C)n(-c2ccccc2)c1=O)C(Cl)(Cl)Cl (centres undefined)	4.9	-1.4	3343	-20.8	6.4	5.7	8.6
O=C(COC(=O)c1cnccn1)c1ccc(C2CCCCC2)cc1	9.0	4.7	3249	-10.4	14.8	7.2	0.2
CC1CCN(S(=O)(=O)c2ccc(NC(=O)C3CSC4(C)CCC(=O)N34)cc2)CC1 (centres undefined)	10.2	-2.1	.	-20.2	-1.0	7.5	4.4
COc1ccc(N2CCC(CNC(=S)Nc3cccc(C)c3)C2)cc1 (centres undefined)	-0.3	3.8	1956	-12.8	-3.5	-3.7	1.9
O=C(CSc1cn[nH]n1)Nc1ccccc1C(F)(F)F	3.2	2.7	6079	-0.1	11.0	-9.4	-1.8
COc1ccc(C(=O)NCc2c(CC(C)C)oc(C)c2C(=O)O)cc1	10.3	8.5	2540	-31.3	0.9	6.6	1.1
CN=C1C=C/C(=N/N=c2\ccn(O)cc2C)C=C1C	1.3	20.4	4012	.	2.5	7.1	13.3
COc1ccc2cc(C(=O)N3CCc4ccccc43)[nH]c2c1	0.4	-8.3	3627	.	-3.5	23.6	8.6
Cc1cc(C)n(CC(O)COc2ccccc2Br)n1 (centres undefined)	3.7	4.4	4111	-24.2	1.9	7.3	1.0
COc1cccc2cc(C(=O)OCc3ccccc3)c(=O)oc12	5.2	-3.4	4322	-16.1	4.9	8.2	1.3
CC1CCN(S(=O)(=O)c2nnc(NC(=O)COc3ccccc3F)s2)CC1	4.0	10.0	4214	-12.5	12.5	2.9	2.8

Full records as entered above. Values in the order: RN4220 kill, BJeLR lethal, Bead autofluor, PrP 5UTR inh, ugtP null kill, Mtb hypoxia inh, Mtb hypoxia inh growth
Listed for COc1ccc(C(=O)NCc2c(CC(C)C)oc(C)c2C(=O)O)cc1 : 10.3, 8.5, 2540, -31.3, 0.9, 6.6, 1.1
Listed for Cn1cc(SCC(N)=O)c2ccccc21 : 7.3, -5.5, 5314, -33.9, 4.5, 3.1, 4.5
Listed for O=C(N[C@@H]1CCC(=O)N(CC[C@H](Oc2ccccc2)c2ccccc2)CC1)OCc1ccccc1 : ., 3.5, 4470, -3.4, ., ., .
Listed for CC1CCN(S(=O)(=O)c2nnc(NC(=O)COc3ccccc3F)s2)CC1 : 4.0, 10.0, 4214, -12.5, 12.5, 2.9, 2.8

Carrying on.
SMILES	RN4220 kill	BJeLR lethal	Bead autofluor	PrP 5UTR inh	ugtP null kill	Mtb hypoxia inh	Mtb hypoxia inh growth
Nc1nnnn1N=Cc1ccc(O)cc1	3.7	.	.	.	10.0	8.0	4.8
O=C(COC(=O)/C=C/c1ccc(F)cc1)Nc1ccc2[nH]c(=O)[nH]c2c1	5.2	-4.9	?	-13.0	11.3	-13.5	-7.9
Cc1ccc(N2CC(C(=O)OCC(=O)c3ccc(F)cc3)CC2=O)cc1 (centres undefined)	2.3	2.9	3449	-44.5	2.2	6.4	2.1
Cc1ccccc1-n1c(-c2csc3ccccc23)n[nH]c1=S	3.4	-6.5	2404	-7.9	-4.0	0.5	0.4
c1ccc(-c2n[nH]nc2-c2ccccc2)cc1	5.9	-4.4	11165	-17.8	8.3	3.5	9.5
CC(C(=O)O)N1C(=O)/C(=C/C=C/c2ccco2)SC1=S (centres undefined)	-3.1	5.1	2956	-2.7	-11.5	7.5	9.9
O=C(O)c1nn(CCSc2ccccc2F)c(=O)c2ccccc12	-1.8	-3.7	3560	0.2	7.5	2.9	4.3
CCc1ccccc1NC(=O)CSc1n[nH]c(C)c1[N+](=O)[O-]	7.2	5.6	2670	3.5	7.4	1.3	-2.6
O=C(COC(=O)c1cccnc1)Nc1ccc(F)cc1	3.1	-7.8	4165	-11.4	3.2	1.4	10.7
CC(=O)c1ccc(C(=O)N(CCN(C)C)c2nc3c(Cl)cccc3s2)cc1	3.0	4.7	3300	-6.9	5.5	8.8	1.2
O=C(NC1CCCCC1)C(c1ccc(F)cc1)N(CCc1ccccc1)C(=O)CN1C(=O)c2ccccc2S1(=O)=O (centres undefined)	8.6	20.7	2351	-6.3	14.4	4.4	1.7
Nn1c(SCc2cccc(Cl)c2)nnc1-c1ccncc1	3.9	0.0	4017	-18.1	2.2	17.0	5.5
N#Cc1cccc(OCC(=O)NC(=O)NCc2ccccc2)c1	1.9	0.7	4571	-16.8	1.2	-1.7	-3.7
COC(=O)c1c(C)oc(C)c1S(=O)(=O)Nc1ccccc1	3.7	0.2	4356	-12.5	1.4	3.1	3.1
CN(C)c1ccc(C(=O)NC2(N3CCC3=O)CCCC2)cc1	0.6	2.8	4455	-32.2	1.0	8.7	0.2
O=C(CC(c1ccc(F)cc1)c1ccco1)N1CCCC1 (centres undefined)	4.5	-6.3	3452	-4.2	-5.2	.	.
O=C(CN(C1CCCCC1)S(=O)(=O)c1ccc(F)cc1)Nc1ccc2c(c1)OCO2	7.8	-4.7	6520	-24.0	-7.8	12.9	2.5
CCOc1ccc(CC(=O)C2C(=O)CCCC2=O)cc1OCC	2.3	-9.7	2892	-11.4	-3.5	.	.
C=CCc1cccc(C=Nc2cccn3cc(-c4ccccc4)nc23)c1O	2.0	2.5	2036	-33.0	-5.5	-2.2	-3.3
Cc1nn(-c2ccccc2)c(C)c1C(=O)NCc1ccccc1F	5.7	4.5	3690	-15.8	-4.0	17.7	7.1
CCN1C(=O)C(CC(=O)Nc2ccc(OC)cc2)N(CCc2ccccc2F)C1=S (centres undefined)	-2.0	-16.2	3853	-26.1	-11.7	9.6	2.0
CCOc1cc(C)c(Cl)cc1S(=O)(=O)NC1CC(C)(C)NC(C)(C)C1	0.3	3.1	2149	-12.7	2.7	10.6	8.8
O=C1CC(c2ccccc2F)c2cc3c(cc2N1)CCC3 (centres undefined)	3.4	-3.4	10582	-25.5	-12.8	1.8	-7.2
COCC(=O)Nc1ccc2c(c1)OCC(=O)N2Cc1ccc(C)cc1	3.4	-8.5	3041	-15.6	10.8	-1.7	0.5
COc1cccc(OCc2cc(C(=O)N3CCN(c4ccccc4O)CC3)no2)c1	7.1	-10.9	4761	-69.4	3.4	7.1	12.7

More compounds follow.
SMILES	RN4220 kill	BJeLR lethal	Bead autofluor	PrP 5UTR inh	ugtP null kill	Mtb hypoxia inh	Mtb hypoxia inh growth
O=C(NC1CCCCC1)N1CCCC1	6.1	-7.7	21923*	-21.0	3.6	.	.
CCN(CC)c1ccc(NC(=O)CC2Oc3ccccc3NC2=O)c(C)c1 (centres undefined)	0.5	-1.9	4058	4.7	3.7	.	.
CCCCC(=O)O[C@]1(C(=O)CO)CC[C@H]2[C@@H]3CCC4=CC(=O)CC[C@]4(C)[C@H]3[C@@H](O)C[C@@]21C	.	7.8	6837	24.9	.	.	.
COc1cc(/C=C(/C#N)c2nc3ccccc3[nH]2)ccc1OC(=O)c1ccco1	4.4	-5.6	5710	-50.9	-11.2	1.7	2.2
Nc1c(-c2ccc3c(c2)OCCO3)oc2ccccc2c1=O	6.6	-3.6	6018	-63.6	-10.5	8.3	3.4
CC1CCC(NC(=O)c2ccc(S(C)(=O)=O)cc2)CC1 (centres undefined)	4.2	2.4	2651	-25.2	6.4	16.0	5.8
Cc1c(OC(C)C(=O)NCC(O)c2ccccc2)ccc2c3c(c(=O)oc12)CCCC3 (centres undefined)	11.2	12.0	4836	-5.0	-4.1	0.3	-1.3
O=C1C(=Cc2cccn2-c2ccc(O)cc2)C(=O)c2ccccc21	11.3	0.3	3207	-5.1	-1.2	-3.6	1.4
Cc1cc2ncn(CCC(=O)NC(C)(C)C)c2cc1C	2.0	0.3	4558	-1.2	7.1	14.7	-9.2
CCC1Sc2ccc(S(=O)(=O)CCC(=O)Nc3ccccc3Br)cc2NC1=O (centres undefined)	-1.9	10.1	5187	-2.2	-0.8	-3.3	-0.4
COCCN1CCN(C(=O)c2ccc3oc(CCc4ccccc4)nc3c2)CC1	4.5	1.7	?	-43.5	4.2	7.9	5.4
O=C(CCCn1cncn1)N1CCCC(N2CCN(c3ccc(F)cc3)CC2)C1 (centres undefined)	1.2	-4.1	6151	-15.0	1.8	5.6	-14.6
Clc1cccc(CNCCc2c[nH]c3ccccc23)c1	0.8	-5.6	3978	-3.6	-2.4	9.5	6.6
COc1ccc(-c2noc(CN(C)C(=O)c3ccc4c(c3)OCO4)n2)cc1OC	2.4	5.2	4248	-5.2	2.5	14.7	3.9
N/C(Cn1cncn1)=N\NC(=O)C(=O)Nc1cccc(C(F)(F)F)c1	-1.5	-4.2	2597	-24.9	-7.3	-8.0	15.9
COc1ccccc1N(Cc1ccccc1)S(=O)(=O)c1cccc(C(=O)N2CCCCC2)c1	6.0	.	3683	16.1	-7.5	-0.5	-9.1
CC(C)C(=O)NS(=O)(=O)c1ccc(NS(C)(=O)=O)cc1	6.6	-7.5	5590	-28.2	3.0	7.7	4.3
CC(=O)Nc1cccc(NC(=O)CSc2nn3c(=O)c(C)nnc3s2)c1	1.7	-0.2	4904	-16.4	6.6	2.7	6.6
S=C(NCc1ccc2c(c1)OCO2)NCc1ccco1	3.2	0.9	4737	10.1	4.2	-5.1	1.0
CC(C)Oc1ccccc1C=Nn1nnnc1N	5.8	.	.	.	3.8	6.4	7.3
COC(=O)c1c(NS(C)(=O)=O)sc2c1CCCC2	-0.2	11.2	4682	-23.2	1.2	.	.
O=C(NN=Cc1cccnc1)C(=O)N1CCCCCC1	3.9	.	.	.	6.3	-11.2	5.9
O=C(O)c1cccc(-n2cccc2/C=C2\SC(=O)N(Cc3ccccc3F)C2=O)c1	.	-22.3	2430	3.2	.	.	.
CN=C(c1ccc(C)cc1)n1c(=S)nc(-c2ccc(C)cc2)n(C)c1=S	3.9	-8.7	4756	-11.4	-1.2	2.6	-8.9
CC(C(N)C(=O)NC(C(=O)O)C1OC(n2ccc(=O)[nH]c2=O)C(O)C1O)C(O)c1ccc(O)cn1 (centres undefined)	5.5	.	.	.	-3.1	7.9	1.2
CCNC(=S)N1CCCC(c2nc3ccc(C)cc3[nH]2)C1 (centres undefined)	-1.6	7.6	4462	-33.9	-0.1	8.2	8.4
CC#CC[N+](C)(C)CCCCCCCCCC	-4.6	9.0	3813	-22.5	29.3	18.0	15.9

An unsorted share of the library; 3.9% or so of the library scored in one or more.
